# MARV entry inh: qHTS for inhibitors of binding or entry into cells for Marburg Virus; Potency, µM (titrated, usually from 37.8 µM), without a hit: at the top dose activity change, negative = inhibition, usual class: inhibitors; AID 540276, 2011; Marburg virus pseudotyped entry inhibition, cell reporter; control for the full effect not named in the record; about a third of the inactives were read at about 46 µM; actives 1.8% (n = 300,000); active = well fitted inhibition curve with a large enough effect; inconclusive = small, poorly fitted or top-dose-only effect, or effect the other way; inactive = flat fitted curve, though single readings scatter; tested in HEK293 cells; about a fifth of its hits are not listed in these tables; further: on the % scale 0 is the no-effect control and ±100 the full control effect; luciferase read-out
# NS1 function inh: qHTS Assay for Inhibitors of Influenza NS1 Protein Function; S. cerevisiae slowed by influenza A NS1, growth recovery by OD600; Potency, µM (doses to about 46.1 µM), inactives show top-dose activity, positive = more growth; actives 0.4% (n = 270,000); AID 2326, 2010; active means well fitted rising curve with a large enough effect; inconclusive means small, poorly fitted or top-dose-only effect; inactive means no such curve, though single readings can be large or run the other way; further: nearly all actives have a fitted effect of over 50% in size
#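 A cell-based growth assay was used: compounds that relieve NS1-induced slow growth of budding yeast raise OD600. Assay medium was yeast nitrogen base with ammonium sulphate and -URA supplement, pH 6.0, with 2% galactose.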
# Lassa entry inh: qHTS for Inhibitors of binding or entry into cells for Lassa Virus | Lassa virus pseudotype entry inhibition, cell reporter; control for the full effect not named in the record | Potency, µM (titrated, usually from 37.9 µM), inactives show top-dose activity change, negative = inhibition, usual class: inhibitors | AID 540256, 2011 | actives 1.2% (n = 300,000); active means well fitted inhibition curve with a large enough effect; inconclusive means small, poorly fitted or top-dose-only effect, or effect the other way; inactive means flat fitted curve, though single readings scatter; tested in HEK293 cells; further: on the % scale 0 is the no-effect control and ±100 the full control effect; nearly all actives have a fitted effect of over 50% in size; luciferase read-out
# 2A StopGo: High Throughput Screening for Foot and Mouth Disease Virus Antivirals. actives 1.2% (n = 410,000). human cells with a luciferase reporter of 2A StopGo recoding; control for the full effect not named in the record. AID 1159524, 2015. Potency, µM (top dose mostly 57.9 µM), for inactives: at the highest dose signal change, negative = less light; active = well fitted falling curve with a large enough effect; inconclusive = small, poorly fitted or top-dose-only effect; inactive = no such curve, though single readings can be large or run the other way; tested in HEK293T cells; further: on the % scale 0 is the no-effect control and ±100 the full control effect; nearly all actives have a fitted effect of over 45% in size; luciferase light after 4 h
# Cruzain inh Det: qHTS Assay for Promiscuous and Specific Inhibitors of Cruzain (with detergent). Cruzipain (Trypanosoma cruzi), P25779. purified cruzain, Z-FR-AMC fluorescence, 0.01% Triton. Potency, µM, for inactives: max response, negative = inhibition, actives largely listed as inhibitors. actives 0.43% (n = 200,000);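 further: plate controls were neutral wells for no effect and buffer without enzyme for full effect; nearly all actives have a fitted effect of over 40% in size; top concentration of the series not given in the record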
# Target sequence (P25779 123-467 limits assumed): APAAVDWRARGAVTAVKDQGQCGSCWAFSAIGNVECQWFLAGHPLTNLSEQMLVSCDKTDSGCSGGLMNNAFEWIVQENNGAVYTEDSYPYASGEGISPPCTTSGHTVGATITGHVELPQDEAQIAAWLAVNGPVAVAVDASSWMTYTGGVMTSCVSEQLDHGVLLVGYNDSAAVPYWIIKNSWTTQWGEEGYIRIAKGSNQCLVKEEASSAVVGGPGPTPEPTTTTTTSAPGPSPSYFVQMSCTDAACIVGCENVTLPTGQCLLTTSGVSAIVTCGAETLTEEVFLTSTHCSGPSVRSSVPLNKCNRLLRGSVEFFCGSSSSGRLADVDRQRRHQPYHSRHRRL
#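 Detergent-containing arm of a paired screen for aggregation-based inhibition: 0.01% Triton X-100 present. Cruzain at 1.5 nM cleaved 2 uM Z-FR-AMC at pH 5.5 with 5 mM DTT; AMC fluorescence gain over 60 s measured activity.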
# SARS PLP yeast: qHTS of Yeast-based Assay for SARS-CoV PLP; S. cerevisiae expressing SARS-CoV PLpro, growth rescue; control for the full effect not named in the record; Potency, µM (highest dose often 32.9 µM), for the others: at the highest dose activity, positive = growth rescue; actives 0.19% (n = 330,000); AID 485353, 2010; active means well fitted rising curve with a large enough effect; inconclusive means small, poorly fitted or top-dose-only effect; inactive means no such curve, though single readings can be large or run the other way; further: 0% is about no effect; nearly all actives have a fitted effect of over 55% in size; growth read by luminescence after 48 h
# RE007 growth inh: qHTS Assay for Inhibitors of the HIV-1 protein Vpr; actives 0.21% (n = 360,000); AID 651644, 2012; Potency, µM (highest dose often 92.2 µM), for the others: at the highest dose activity change, negative = less growth; S. pombe RE007 Vpr strain, BacTiter-Glo ATP luminescence, 24 h; control for the full effect not named in the record; active = well fitted falling curve with a large enough effect; inconclusive = small, poorly fitted or top-dose-only effect; inactive = no such curve, though single readings can be large or run the other way;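 further: on the % scale 0 is the no-effect control and ±100 the full control effect; nearly all actives have a fitted effect of over 50% in size; the assay follows cell death caused by Vpr and the record does not say whether a fall means rescue or toxicity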
#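 Fission yeast RE007 carrying one integrated HIV-1 vpr copy, seeded at OD 0.01 in PMG+AL medium with 23 nL pinned compound. Grown 24 h at 30 degrees; viability read by BacTiter-Glo luminescence after 5 min.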
# Cruzain inh noDet: qHTS Assay for Promiscuous and Specific Inhibitors of Cruzain (without detergent). actives 2.3% (n = 200,000). AID 1476, 2009. Potency, µM, for the others: max response, negative = inhibition, hits mostly inhibitors. purified cruzain, Z-FR-AMC fluorescence, no detergent;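 further: plate controls were enzyme without inhibitor for no effect and buffer without enzyme for full effect; nearly all actives have a fitted effect of over 40% in size; top concentration of the series not given in the record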
#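 Detergent-free condition (0.00005% Triton X-100) in acetate buffer pH 5.5 with DTT. 1.5 nM enzyme and compound were pre-mixed 15 min, then 2 uM Z-FR-AMC substrate added; reaction progress from fluorescence change between first and third reads (60 s).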
# * hit, by the source's call; u = inconclusive; x = no result given; & = joins results of further samples; [ ] = dose if it differs, or a comment. Unless noted, the call rests on the fitted dose curve; in most records, active means well fitted curve in the direction sought with a large enough effect; inconclusive means small, poorly fitted or top-dose-only effect, or another doubt; inactive means no such curve, though single readings can be large; an effect the other way counts as inactive or inconclusive. Potency means the concentration at half of the fitted maximal effect.
SMILES,MARV entry inh,NS1 function inh,Lassa entry inh,2A StopGo,Cruzain inh Det,SARS PLP yeast,RE007 growth inh,Cruzain inh noDet
Cc1nc2ccccn2c(=O)c1NC(=O)c1c(F)cccc1F,x,x,-1%[46.1 µM],-4%,-1.2%,x,x,-1%
CCCCn1c(N)c(N(CCOC)C(=O)CCS(=O)(=O)c2ccc(Cl)cc2)c(=O)[nH]c1=O,6%,x,1%,-10%,x,2%,3%,x
CCOC(=O)N1CCC(NC(=O)c2cnn(-c3ccc(C)cc3)c2C2CCN(C(=O)OC(C)(C)C)CC2)CC1,x,x,-1%[46.1 µM],-2%,-1.2%,x,x,u
Cc1ccc(C)c(N2CC(C(=O)Nc3cc(C)on3)CC2=O)c1 (stereo not drawn),10%[46.1 µM],3%,-7%,-1%,x,-2%,8%,x
FC(F)(F)c1cc(-c2cccs2)nc2ncnn12,-6%[46.1 µM],3%,x,-10%,x,0%,-9%,x
O=C(CNC(=O)C1CCCCC1)Nc1ccc(F)c(Cl)c1,0%,x,-6%,95%[activator],x,2%,-13%,x
COc1ccc(C2NC(=S)NC3=C2N2CCC3CC2)cc1 (stereo not drawn),3%,-3%,15%,10%,x,7%,-16%,x
O=[N+]([O-])/C=C/c1c(Cl)cccc1Cl,10µM*,x,-5%,7.9µM*,x,x,u,x
O=C(NCCSCc1ccco1)Nc1cccc(Cl)c1,-4%,-56%,14%,x,-9.1%,-12%,-15%,-2%
N/C(Cn1nnc(-c2ccccc2)n1)=N\O,-11%,6%,22%,4%,-0.9%,2%,0%,-4%
Cc1[nH]c2ccccc2c1C(=O)C(=O)NC1CC1,12%[46.1 µM],16%,-3%[46.1 µM],1%,x,-5%,5%,x
Cc1ccnc(NC(=O)C2CCN(S(=O)(=O)c3c(C)c(C)cc(C)c3C)CC2)c1,u,-82%,-24%,u,x,-9%,-2%,x
O=C(NCCS(=O)(=O)N1CCN(Cc2ccccc2)CC1)c1ccccc1,2%[46.1 µM],x,-2%,-11%,x,3%,3%,x
Cc1cccc(OCCCC(=O)NC(C)c2ccccc2)c1 (stereo not drawn),u,-54%,-2%,-16%,2.1%,-2%[6.58 µM],1%,3%
NC(=O)c1nn(-c2ccccc2)nc1N,-1%,0%,7%,7%,5.9%,-1%,2%,8%
CCOC(=O)N1CCC(c2nc3ccccc3[nH]2)CC1,-17%,2%,0%,16%,1.9%,3%,-13%,-1%
N#C/C(=C\C1CC2C=CC1C2)c1nc2ccccc2[nH]1 (stereo not drawn),-6%,-7%,-13%,-5%,6.7%,-11%,-4%,-2%
COc1cccc(/C(O)=C2/C(=O)C(=O)N(c3cc(C)on3)C2c2cccs2)c1 (stereo not drawn),-21%[46.1 µM],-1%,0%,-12%,-4.6%,5%,-8%,-6%
Cc1ccccc1-n1c(=O)c(C#N)cc2c(=O)n3ccccc3nc21,-3%,3%,8%,-18%,u,8%,10%[3.69 µM],u
CN1C(C)(C)CCCC1(C)C,-6%&-6%&-6%&-6%&-6%&-6%,-16%,x,-4%&-7%,-2.6%&1.7%&7.9%,x,-3%[18.4 µM],-13%&3%&2%

# Gathered by group: the compounds so far with an NH in an aromatic ring
SMILES,MARV entry inh,NS1 function inh,Lassa entry inh,2A StopGo,Cruzain inh Det,SARS PLP yeast,RE007 growth inh,Cruzain inh noDet
CCCCn1c(N)c(N(CCOC)C(=O)CCS(=O)(=O)c2ccc(Cl)cc2)c(=O)[nH]c1=O,6%,x,1%,-10%,x,2%,3%,x
Cc1[nH]c2ccccc2c1C(=O)C(=O)NC1CC1,12%[46.1 µM],16%,-3%[46.1 µM],1%,x,-5%,5%,x
CCOC(=O)N1CCC(c2nc3ccccc3[nH]2)CC1,-17%,2%,0%,16%,1.9%,3%,-13%,-1%
N#C/C(=C\C1CC2C=CC1C2)c1nc2ccccc2[nH]1 (stereo not drawn),-6%,-7%,-13%,-5%,6.7%,-11%,-4%,-2%

# (cont.)
SMILES,MARV entry inh,NS1 function inh,Lassa entry inh,2A StopGo,Cruzain inh Det,SARS PLP yeast,RE007 growth inh,Cruzain inh noDet
Cc1ccc(C(=O)OCC(=O)NCc2ccc3c(c2)OCO3)s1,14%,1%,4%,3%,1.3%,7%,3%,-7%
C=C(C)COc1ccc(-c2[nH]ncc2-c2ccc(OC)c(OC)c2)c(O)c1,1.6µM*,-110%,1.3µM*,u,-7.5%,u,0%,-6%
CC(=O)c1cccc(NC(=O)COC(=O)c2cccs2)c1,14%[46.1 µM],x,21%,16%,x,0%,2%,x
COC(=O)N/N=C/c1cccc([N+](=O)[O-])c1,16%[46.1 µM],-4%,22%[46.1 µM],1%,x,1%,10%,x
COCCN(C(=O)CSc1nnc(-c2cccs2)n1N)c1c(N)n(Cc2ccccc2)c(=O)[nH]c1=O,u,8%,5%,-16%,x,4%,2%,x
Cc1cc(Br)ccc1NC(=O)CN1CCN(c2ccccn2)CC1,x,-1%,x,-16%,x,2%,-4%,x
c1ccc(Sc2cnc3ccccc3n2)cc1,5%,-9%,u,58%[activator],-1.0%,x,-2%,-1%
Cc1ccc(N(CC(=O)NCc2ccccn2)S(=O)(=O)c2ccccc2)cc1Cl,-18%,-3%,u,5%,x,-1%,19%,x
COc1cc2c(cc1OC)C(c1ccccc1)CC2=O (stereo not drawn),x,-2%,x,-4%,x,-3%,12%,x
CN1CCN(CCC(=O)Nc2ccc3c(c2)OCO3)CC1,4%[46.1 µM],14%,16%,7%,-0.2%,24%,55%,2%
O=C(Cn1cc(SCc2ccccc2F)c2ccccc21)N1CCCCCC1,x,x,u,-16%,-8.5%,x,x,-5%
O=C(Nc1ccc2nc[nH]c2c1)c1ccco1,17%,0%,17%,50%[activator],0.2%,-6%,2%,3%
NNC(=O)CSCc1nc(-c2ccccc2)cs1,1%,2%,u,25%,x,1%,-7%,x
Cc1ccc(NCc2ccccc2-c2nnc(-c3ccccc3Cl)o2)c(C)c1,10%[46.1 µM],x,5%[46.1 µM],42%[activator],-3.2%,x,x,5%
COCCn1nnnc1CN1CCC(O)(c2cccc(C(F)(F)F)c2)CC1,u,-2%,2%,x,0.9%,1%,-12%,4%
CN(C)S(=O)(=O)c1ccc2c(c1)nnn2CCNC(=O)Nc1ccc(Br)cc1,x,x,16%[46.1 µM],9%,-1.6%,x,x,-11%
Cc1cc([N+](=O)[O-])nn1Cc1noc(C(=O)NCCc2ccccn2)n1,13%[46.1 µM],-15%,x,15%,x,0%,-3%,x
Cc1ccc(C(=O)Nc2c(C)n(C)n(-c3ccccc3)c2=O)cc1S(=O)(=O)N1CCOCC1,9%&9%,-9%,0%,-3%,0.9%,8%,0%,-2%
O=C(CCN1C(=O)c2ccccc2C1=O)NCc1ccncc1,12%,13%,-13%,1%,3.9%,3%,-5%,-11%
COC(=O)c1c(NC(=O)c2ccccc2OC)sc(C(=O)N2CCOCC2)c1C,-15%[46.1 µM],6%,-7%[46.1 µM],0%,x,0%,3%,x

# No new results follow: two of the compounds above.
SMILES,MARV entry inh,NS1 function inh,Lassa entry inh,2A StopGo,Cruzain inh Det,SARS PLP yeast,RE007 growth inh,Cruzain inh noDet
O=C(CCN1C(=O)c2ccccc2C1=O)NCc1ccncc1,12%,13%,-13%,1%,3.9%,3%,-5%,-11%
COC(=O)c1c(NC(=O)c2ccccc2OC)sc(C(=O)N2CCOCC2)c1C,-15%[46.1 µM],6%,-7%[46.1 µM],0%,x,0%,3%,x

# Next results
SMILES,MARV entry inh,NS1 function inh,Lassa entry inh,2A StopGo,Cruzain inh Det,SARS PLP yeast,RE007 growth inh,Cruzain inh noDet
C=C(C)C(=O)N1CC2(CC(c3cccc(NC(=O)COc4ccc(Cl)cc4)c3)=NO2)C[C@@H]1C(N)=O (stereo partly drawn),x,-11%,x,u,x,-1%,-1%,x
Cc1ccc(NC(=O)c2oc3ccccc3c2NC(=O)C2CC2)cc1,x,-3%,x,-10%,x,2%,15%,x
CC(C)c1ccc(NC(=O)c2ccc3c(c2)CCN3S(C)(=O)=O)cc1,x,0%,x,u,x,-2%,-6%,x
Cc1sc(NC(=O)Cn2c(=O)oc3ccccc32)nc1-c1ccc(Cl)cc1,-9%,20%,2%,-8%,-2.0%,0%,10%,-20%
CCCN1C(=O)c2cc(C(=O)Nc3ccc(OC)c(OC)c3)ccc2C1Nc1ccc(OC)c(OC)c1 (stereo not drawn),-13%[46.1 µM],x,3%[46.1 µM],-20%,x,0%,-8%,x
CCOc1ccc(NC(=O)CCN2CCN(S(=O)(=O)c3ccc(F)cc3)CC2)cc1,0%[46.1 µM],14%,-15%[46.1 µM],-17%,x,18%,-8%,x
C/C(=N/NC(=O)CNC(=O)/C=C/c1ccco1)c1ccc(Cl)cc1,u,5%,-8%,11%,x,-2%,-2%,x
Cc1cc(NS(=O)(=O)c2ccc(NC(=O)COc3ccccc3[N+](=O)[O-])cc2)no1,23%,2%,-1%,29%,x,-6%,20%,x
CCn1c(NCCCO)nc2c(c1=O)C(C)(CC)Cc1ccccc1-2 (stereo not drawn),u,5%,-18%,u,x,1%,30%,x
CC/C(=N\N=C1\SC(C)C(=O)N1Cc1ccco1)c1ccccc1 (stereo not drawn),7%,-15%,-17%,-22%,-4.2%,-14%,-19%,14%
CSC(=Nc1cccc(C)c1)NC#N,-3%,2%,2%,-20%,-1.9%,6%,19%,-5%
COc1ccc(OC)c(S(=O)(=O)N(C)CC(=O)N2CCN(c3ccccc3)CC2)c1,-6%,-8%,16%,-16%,1.4%,-2%,2%,u
Cc1cc(NC(=O)CSc2nnc(-c3ccccc3)n2C)no1,9%[46.1 µM],-3%,0%,5%,x,-1%,6%,x
NC(=O)CC1NC(=O)c2ccccc21 (stereo not drawn),8%,14%,3%,16%,1.7%,1%,2%,2%
NC1=NC(=Nc2ccc(S(=O)(=O)N3CCOCC3)cc2)c2ccccc21,u,-5%,-24%,-20%,x,-1%,0%,x

# High-throughput results: PubChem, National Center for Advancing Translational Sciences (NCATS)
